Screening results (PubChem)
Six1-Eya2 blk – Six1/Eya2 interaction inhibition. Q15475+O00167. AlphaScreen GST-Six1/His-Eya2 binding, biochemical; hits give low values; control for the full effect not named in the record. activity change, % (no concentration beside the values). 360,000 compounds, 0.56% hits; in the data active = activity change below about -65%; inconclusive = about -30% to -65%; inactive = above about -30%; further: on the % scale 0 is the no-effect control and ±100 the full control effect
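AlphaScreen luminescence read after one hour at 37 °C in darkness. Pin-transferred compounds met GST-Six1 and His-Eya2 protein (5X stock 250 nM/500 nM) plus glutathione donor and Ni-chelate acceptor beads (5X, 50 ug/mL).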
D2 ag – human D2 receptor agonism in beta-arrestin assay; P14416; DiscoveRx PathHunter D2 beta-arrestin, luminescence, 90 min; 100% = 57 uM dopamine signal; activation, % (test concentration not listed); 360,000 compounds, 0.084% hits; AID 624465; in the data active = activation above about 40%; inconclusive = about 15% to 40%; inactive = below about 15%; further: compound concentration not given in the record; the text of the record calls up to 30% inactive
Target sequence (P14416 whole entry, looked up): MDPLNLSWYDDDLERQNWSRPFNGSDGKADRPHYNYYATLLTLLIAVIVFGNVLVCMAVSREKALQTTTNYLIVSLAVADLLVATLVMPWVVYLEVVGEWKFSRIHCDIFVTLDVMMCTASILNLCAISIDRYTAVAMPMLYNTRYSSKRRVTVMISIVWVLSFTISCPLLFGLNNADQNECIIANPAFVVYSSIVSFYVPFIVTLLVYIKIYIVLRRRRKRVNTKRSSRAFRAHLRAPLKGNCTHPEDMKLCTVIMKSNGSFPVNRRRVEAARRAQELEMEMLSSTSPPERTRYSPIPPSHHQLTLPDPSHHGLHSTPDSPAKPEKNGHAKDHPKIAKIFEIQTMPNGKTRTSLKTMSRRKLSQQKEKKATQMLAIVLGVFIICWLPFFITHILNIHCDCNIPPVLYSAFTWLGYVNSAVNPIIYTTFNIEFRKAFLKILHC
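DiscoveRx PathHunter D2 beta-arrestin cells (2,100/well) attached overnight, then compound-stimulated 90 min at 37 C in HBSS/10 mM HEPES/0.1% Tween-20 buffer; beta-galactosidase complementation read by luminescence after 1 h at ambient temperature. Dopamine 57 uM final (EC100) as control.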
D2 potentiator – positive allosteric modulators of human D2 dopamine receptor; AID 624464; potentiation, % (concentration not given with the values); DiscoveRx D2 beta-arrestin cells, luminescence, 90 min; 100% = 57 uM dopamine signal; 360,000 compounds, 0.23% hits; active = potentiation of 50% or more; inconclusive = 30% to 50%; inactive = 30% or less;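 further: tested on top of an EC20 dose of dopamine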
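D2 cells co-treated with compound plus 50 nM dopamine (EC20) for 90 min at 37 deg C to detect potentiation. Beta-arrestin recruitment was read as enzyme-fragment luminescence after 1 h at ambient temperature. Full response was set by 57 uM dopamine.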
TRPML1 ag – agonists of human TRPML1 channel; TRPML1-expressing cells, Ca2+ dye fluorescence, FDSS; host cell line not named in the record; reference of the full effect not given here; activation, % (concentration not given with the values); 410,000 compounds, 0.12% hits; AID 624414; in the data active = activation above about 50%; inconclusive = about 30% to 50%; inactive = below about 30%; further: 0% is about no effect; the text of the record puts the active cut at 80%
Target sequence (Q9GZU1 whole entry, looked up): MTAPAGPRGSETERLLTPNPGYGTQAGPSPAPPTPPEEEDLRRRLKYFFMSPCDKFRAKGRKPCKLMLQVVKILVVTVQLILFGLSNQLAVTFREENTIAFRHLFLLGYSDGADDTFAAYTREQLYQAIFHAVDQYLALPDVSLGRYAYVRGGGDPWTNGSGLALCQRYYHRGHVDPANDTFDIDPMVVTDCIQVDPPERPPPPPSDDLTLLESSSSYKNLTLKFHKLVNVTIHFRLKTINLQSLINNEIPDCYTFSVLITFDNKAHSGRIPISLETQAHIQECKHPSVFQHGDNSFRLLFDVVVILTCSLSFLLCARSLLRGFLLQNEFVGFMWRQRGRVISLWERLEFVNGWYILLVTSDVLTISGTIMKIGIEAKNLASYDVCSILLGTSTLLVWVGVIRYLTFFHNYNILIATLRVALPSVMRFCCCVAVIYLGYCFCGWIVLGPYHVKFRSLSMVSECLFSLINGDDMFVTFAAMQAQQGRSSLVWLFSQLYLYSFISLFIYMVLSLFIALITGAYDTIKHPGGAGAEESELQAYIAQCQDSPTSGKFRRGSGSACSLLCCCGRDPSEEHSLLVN
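Calcium fluorescence on an FDSS kinetic reader gave the read-out. Tet-induced TRPML1-DL cells were plated overnight, dye-loaded (Ca8 with quencher, 45-90 min, room temperature, dark), then read 110 s after compound addition, and again 110 s after 4uM final 54-4 (EC80).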
CtBP-E1A blk – blocks the CtBP interaction with E1A; AlphaScreen GST-E1A/His-CtBP binding, 1536-well; hits give low values; control for the full effect not named in the record; activity change, % (no concentration beside the values); 340,000 compounds, 0.49% hits; in the data active means activity change below about -65%; inconclusive means about -30% to -65%; inactive means above about -30%; further: on the % scale 0 is the no-effect control and ±100 the full control effect
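AlphaScreen with 125 nM GST-E1A and 125 nM His-CtBP (5X stocks) in Tris pH 8.0, 300 mM NaCl, BSA, Tween 20, TCEP. Compounds preincubated 2 h at 37 deg C, then glutathione donor/nickel acceptor beads added for 1 h at 37 deg C in dark.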
PINK1 modulator – changes PINK1 expression; AID 624263; Potency, µM (series often up to 76.6 µM), inactives show at the highest dose activation (PINK1 increase), usual class: activators; 410,000 compounds, 0.2% hits; PINK1 immunofluorescence, high-content cytometry, 24 h; active = well fitted activation curve with a large enough effect; inconclusive = small, poorly fitted or top-dose-only effect; inactive = flat fitted curve, though single readings scatter; cell line not stated here;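 further: potency means the concentration at half of the fitted maximal effect; % of control where 0% means no effect; nearly all actives have a fitted effect of over 65% in size; a mitochondrial uncoupler was the plate control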
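Stable cell line, 250 cells/well, 12 h attachment; compounds pinned at 5 concentrations, 24 h; CCCP control. Fixed with nuclear dye, primary antibodies 12 h at 10 degrees C, secondary plus cell stain; laser-scanning cytometer read.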
Active calls of the source: *; ? = inconclusive; / = no result given; & = joins results of further samples; [ ] = another dose, or the depositor's remark.

SMILES	Six1-Eya2 blk	D2 ag	D2 potentiator	TRPML1 ag	CtBP-E1A blk	PINK1 modulator
O=C(COC(=O)c1cccc(S(=O)(=O)NCc2ccccc2)c1)c1ccc2c(c1)OCCO2	4	0.5	5	0.9	3	6.2%
COCCNC(=O)C(c1cccs1)N(CCc1ccccc1)C(=O)Cn1nnc2ccccc21 (stereo not given)	5	-5.8	-10	0.7	9	-0.7%
CCCC(=O)N1CCC1(C)C(=O)NCc1ccccc1SC (stereo not given)	6	6.1	-7	-0.4	2	2.7%
COc1cc(OC)c(OC)cc1CCC(C)NC(=O)Cc1ccccc1 (stereo not given)	-14	-20	-11	2.5	-15	-2.6%
O=[N+]([O-])c1cc(Br)c(O)c(/C=N/Nc2nnnn2-c2cccc3ccccc23)c1	?	-7.0	-16	1.5	-70*	-4.1%[38.3 µM]
COc1ccc(OC)c2c1sc(=NC(=O)c1ccco1)n2C	-1	4.5	-14	1.4	-5	16%
COC(=O)c1ccc(=O)n(Cc2ccco2)c1	3	0.4	1	-0.2	8	-1.3%
CC(C)CCNc1nc(N)c([N+](=O)[O-])c(NCCO)n1	1	-2.9	-2	0.4	0	1.2%
O=C(CSc1nnnn1C1CCCCC1)N1CCN(C(=O)c2ccco2)CC1	8	2.0	-9	0.1	/	0.2%
COc1ccc(C(=Cc2cc(OC)c(OC)cc2[N+](=O)[O-])C(=O)O)cc1	2	0.8	5	-0.3	-3	-0.7%
CC(C)(C)NS(=O)(=O)c1ccc2c(c1)oc(=O)c1cc(S(=O)(=O)NC(C)(C)C)ccc12	1	-1.0	-7	0.0	1	-3.2%[38.3 µM]
CCNC(=S)NNC(=O)c1cc(-c2cc(C)ccc2C)nc2ccccc12	4	-7.3	-21	-0.6	-6	0.9%[38.3 µM]
CCCNC(=O)c1ccc2c(c1)ncn2-c1cc(C)cc(C)c1	6	-0.3	-1	2.4	-1	1.0%
COCCN(CC(=O)NCc1ccc(OC)cc1)C(=O)CCC(=O)Nc1nccs1	7	-1.1	2	-0.2	-8	1.8%
COc1cccc(/C=N/NC(=O)CC(=O)NCCc2ccccc2)c1OC	-5	-3.1	-33	0.0	-7	1.3%
CCCCCCC[N+](CC)(CC)CCCCc1ccc(Cl)cc1	-2	-6.8	-10	-1.1	4	?
C=C(C)Cn1c2ccc(NC(=O)NCCc3ccccc3)cc2c(=O)n1C	-1	3.3	3	-0.6	3	4.6%
O=C(Cc1ccccc1F)Nc1nc(-c2ccc(F)cc2)cs1	0	5.4	3	1.8	3	5.7%
C[C@H](/C=C/[C@@]1(O)[C@H](C)C[C@H](O)CC1(C)C)O[C@@H]1O[C@H](CO)[C@@H](O)[C@H](O)[C@H]1O	-1	1.9	-1	0.3	1	1.5%
CCOC(=O)C1CCCN(C(=O)c2ccc(-c3ccc([N+](=O)[O-])cc3)o2)C1 (stereo not given)	?	3.2	28	1.0	-2	7.6%
CCOc1ccc(C2C=C(c3ccc(F)cc3)Nc3ncnn32)cc1 (stereo not given)	-2	-1.1	-18	0.8	21	0.2%
O=C(c1ccccc1)N1CCC(CC2CC(c3cccc(Br)c3)=NO2)(C(=O)NCC2CCCCC2)CC1 (stereo not given)	-3	-0.5	-13	0.7	/	-0.5%
Cc1ccc(-c2cc(-c3ccccc3Cl)c(C#N)c(N)n2)o1	10	0.3	-1	0.1	17	0.2%
C=CCn1c(-c2ccccc2)n[nH]c1=S	-2	-2.2	-8	0.8	-1	-0.3%
C[C@]12CC[C@H](O)CC1=CCC1C2CC[C@@]2(C)C1CC[C@@H]2NC(=O)[C@@H](N)Cc1ccccc1 (stereo not given in full)	-3	-0.6	-16	0.5	3	-1.2%
Next structures
SMILES	Six1-Eya2 blk	D2 ag	D2 potentiator	TRPML1 ag	CtBP-E1A blk	PINK1 modulator
O=C(O)Cn1cc(/C=N/NC(=O)c2cc3cc(Br)ccc3o2)c2ccccc21	-27	1.8	-4	1.0	-16	-0.3%
COc1ccc(-c2cc(C)nc3c(-c4ccccc4)cnn23)cc1	39	-3.7	-5	0.0	54	5.9%
COC(=O)[C@H](C)NC(=O)NCc1ccc(S(N)(=O)=O)cc1	6	0.4	1	-0.8	-3	-1.6%
O=C(c1ccco1)N1CCN(C(=S)Nc2cc(F)cc(F)c2)CC1	-4	0.3	-5	0.5	-10	-0.3%
CC(C(=O)N=c1sc2ccccc2n1C)N1C(=O)C2CC=CCC2C1=O (stereo not given)	0	0.0	-1	-0.6	1	4.8%[38.3 µM]
COc1cc(C=O)ccc1OCc1c(C)noc1C	-3	-0.7	-5	0.6	1	11%
OCC[C@H]1C[C@@H](O)[C@H](O)[C@@]2(CCCc3ccccc3O2)O1	-1	1.7	-56	-0.2	0	1.1%
CC(C)Nc1nc(-c2cccnc2)nc(-c2ccccc2)c1C#N	8	4.6	-1	1.8	7	8.9%
OC(CN1CCN(c2ccccc2)CC1)Cn1c2ccccc2c2ccccc21 (stereo not given)	-10	-15	-29	-0.7	-4	?
Cc1cccc(CSc2nc3nc(C)cc(C)n3n2)c1	?	-2.7	4	/	5	1.3%
CCC1(C)CC(C(CC(=O)O)c2ccc(C)cc2)CCO1 (stereo not given)	1	-0.8	-5	0.1	6	0.8%[38.3 µM]
O=C1C(=O)N(CCCc2ccccc2)c2ccccc21	2	-6.5	-74	/	/	0.8%
COc1ccc(S(=O)(=O)Nc2cc(C)on2)cc1NC(C)=O	-2	7.1	2	0.2	/	2.0%
CCNC(=S)NNC(=O)c1ccccc1OC(F)F	4	-0.5	-12	-0.3	7	13%[38.3 µM]
N#Cc1ccc(C2=CC(=O)C[C@H](c3ccc4c(c3)OCO4)C2)cc1	-13	0.7	-3	-0.3	/	-0.2%
CN(CC(CC(=O)O)c1ccccc1)S(=O)(=O)c1ccc(Br)cc1 (stereo not given)	7	1.4	-5	0.0	10	1.5%
Cc1ccc(NC(=O)c2cc(-c3cccc(O)c3)on2)cc1C	1	-6.8	-4	0.1	-5	7.1%
COc1ccc(-c2[nH]ncc2N=Nc2cc(C)cc(C)c2)cc1	-19	1.7	-9	2.9	/	0.0%
CC(C)C[C@@H](C(=O)NC1CC1)N1C(=O)N2CCc3c([nH]c4ccccc34)[C@@]2(C)C1=O	-4	-2.4	-38	/	-3	3.3%
N#CC1(NC(=O)Cn2ncc(Cl)c(Cl)c2=O)CCCCC1	7	-2.7	-2	1.0	-10	-0.4%
Cc1ccc(S(=O)(=O)NC(CC(=O)O)c2ccccc2)cc1 (stereo not given)	28	-3.5	4	-0.9	46	-5.6%[38.3 µM]
C=CCn1cccc(C(=O)Nc2cc(OC)ccc2OC)c1=O	-14	-1.9	-5	0.4	-14	-1.0%
CCN(CC)S(=O)(=O)c1ccc(N2CC(C(=O)NC3(C)CCS(=O)(=O)C3)CC2=O)cc1 (stereo not given)	-5	-5.3	-5	-0.2	8	3.7%
NS(=O)(=O)c1ccc(CCNCc2cccnc2)cc1	-8	-4.9	-27	0.0	/	-0.1%
O=C(CSc1nnc2ccc(-c3ccc(Br)cc3)nn12)NCC1CCCO1 (stereo not given)	-15	2.0	2	0.9	-9	-0.4%
Carrying on.
SMILES	Six1-Eya2 blk	D2 ag	D2 potentiator	TRPML1 ag	CtBP-E1A blk	PINK1 modulator
COc1cc(C(=O)N(CCc2ccccc2)C2=CC3CCC(C2)N3C)cc(OC)c1OC (stereo not given)	-7	-3.6	-23	-0.9	1	-0.6%
O=C(N/N=C1\CCCc2ccccc21)c1ccccc1[N+](=O)[O-]	-3	-2.6	-11	-0.6	0	-1.5%
CCOc1ccc(CN(C)CC(=O)NCc2ccccc2)cc1	4	-2.6	-11	-0.2	3	3.6%
Cn1cccc1C(=O)NC(=O)COC(=O)CCNS(=O)(=O)c1cccc(C(F)(F)F)c1	-3	2.9	2	1.3	-29	-2.1%
Cn1nnnc1Sc1ncnc2scc(-c3ccccc3)c12	-3	-4.8	-3	1.3&-1.2	3	0.0%&3.2%
CCN(C(=O)COC(=O)Cc1c(F)cccc1Cl)c1c(N)n(Cc2ccccc2)c(=O)[nH]c1=O	5	-3.8	-7	-0.1	/	1.3%
CCN1CCN(C(=O)CN(c2cccc(Br)c2)S(=O)(=O)c2ccccc2)CC1	6	-2.6	-15	-0.2	14	4.0%
CC(=O)Nc1ccc(-c2csc(Nc3ccccn3)n2)cc1	-7	-0.5	11	/	-1	4.7%
Nn1c(SCC(=O)Nc2ccc3c(c2)OCCO3)nnc(CCC(=O)O)c1=O	3	-4.4	-3	-0.2	2	0.4%
Cc1ccc(S(=O)(=O)/N=C(/c2ccc(F)cc2)N(C)C)cc1	15	-0.3	-4	0.7	-1	3.3%
CC(C)CC(=O)Nc1ccc([N+](=O)[O-])cc1Cl	5	1.0	-7	0.3	-10	1.7%
O=C(CSc1nnc(-c2ccccc2F)o1)Nc1ccc(N2CCOCC2)cc1	-2	-2.4	3	-1.0	/	3.2%
CC(C)CCNC(=O)C(c1ccncc1)N(Cc1cccs1)C(=O)Cn1nnc(-c2ccc(F)cc2)n1 (stereo not given)	-4	-0.8	5	5.7	-11	-1.5%
CNC(=O)C(NC(=O)c1ccccc1)=C(C)C	0	-1.8	-4	0.0	-18	0.1%
CCc1nnc(NC(=O)CSc2ccc(-c3ccccc3OC)nn2)s1	1	0.1	-5	0.8	-4	0.9%
CC(=O)N(Cc1nc2sc(C)c(C)c2c(=O)[nH]1)C1CCCC1	5	-6.8	-3	0.5	7	-0.6%
O=C(N/N=C/c1ccco1)c1ccc(NC(=O)c2ccc(Cl)cc2)cc1	-16	-3.3	-4	-0.3	-13	-1.1%
CCN1C(=O)/C(=C2/Sc3ccc(OC)cc3N2C)SC1=Nc1ccc(OC)cc1	9	-1.1	-14	-0.1	-9	7.4%
O=C(c1ccc(F)cc1F)N1CCN(c2n[nH]c(=O)[nH]c2=O)CC1	1	0.0	-28	-0.1	-2	2.2%
OCC[C@@H]1C[C@H](O)[C@@H](O)[C@@]2(Cc3ccccc3CO2)O1	6	-1.5	-14	0.5	5	-0.7%
O=C(COc1ccc(F)cc1)OCCN1CCOCC1	6	0.6	?	-0.8	7	0.4%
Cn1cc(CN2CCCC(CO)(Cc3ccccc3)C2)cn1 (stereo not given)	1	-1.8	-12	0.0	7	0.0%
O=C(CN1C(=O)C(=O)N(Cc2ccco2)C1=O)Nc1ccccc1	-2	-2.2	-10	1.0	8	1.0%
COc1ccc(CN2C(=O)CCC(C(=O)O)C2c2ccccc2)cc1 (stereo not given)	-5	5.0	6	0.8	-1	-2.3%

Limited to D2 potentiator and TRPML1 ag, for some of the entries so far:
Molecule	D2 potentiator	TRPML1 ag
COC(=O)[C@H](C)NC(=O)NCc1ccc(S(N)(=O)=O)cc1	1	-0.8
O=C(c1ccco1)N1CCN(C(=S)Nc2cc(F)cc(F)c2)CC1	-5	0.5
